Screens from PubChem.
Vaccinia Venus: inhibitors of vaccinia virus (Venus reporter). Vaccinia virus Venus reporter expression, fluorescence. Potency, µM (titrated, usually from 36.5 µM), without a hit: at the top dose activity change, negative = inhibition, usual class: inhibitors. 0.46% of 330,000 active; active means well fitted inhibition curve with a large enough effect; inconclusive means small, poorly fitted or top-dose-only effect; inactive means no such curve, though single readings can be large or run the other way; tested in A549 cells; also: nearly all actives have a fitted effect of over 30% in size; inactives centre near -10
Vaccinia mCherry: inhibitors of vaccinia virus infection (mCherry reporter signal); 0.63% of 310,000 active; Vaccinia virus mCherry reporter infection, fluorescence; about a quarter of the inactives have no number; Potency, µM (top dose mostly 36.5 µM), for the others: top-dose activity change, negative = inhibition, usual class: inhibitors; AID 720579; active = well fitted inhibition curve with a large enough effect; inconclusive = small, poorly fitted or top-dose-only effect; inactive = no such curve, though single readings can be large or run the other way; tested in A549 cells; also: nearly all actives have a fitted effect of over 35% in size; inactives centre near -10
* = called active by the depositor; i = inactive; ? = inconclusive; nt = no result given; & = joins results of further samples; [ ] = remark or other dose. % is scaled to controls: 0 for no effect and ±100 for the full control effect; potency is read from the fitted curve at half-maximal effect.

| structure | Vaccinia Venus | Vaccinia mCherry |
| --- | --- | --- |
| CCCCN1C(=N)N([C@@H](CN2CCC[C@H]2CN2C(N)=NC[C@@H]2Cc2ccccc2)C(C)C)C[C@H]1Cc1ccccc1 | 0% | i |
| CCCCC(=O)Nc1nn(C)c2nc3c(C)cccc3cc12 | -1% | -12% |
| Cc1cc(N/N=C/c2ccccc2)nc(N2CCOCC2)n1 | -6% | -17% |
| O=C(Nc1ccc(C(=O)N2CCOCC2)cc1)C1CCC1 | -10% | 12% |
| O=C(c1ccccc1)c1ccccc1C(=O)N1CCN(Cc2ccccc2F)CC1 | -19% | -25% |
| CCCCNC(=O)C1(C)CCCCN1C(=O)c1ccc2ccccc2n1 (stereo not drawn) | -6% | i |
| O=C(CSc1nc2ncc(Cl)cc2[nH]1)Nc1cccc(F)c1 | 14%[7.34 µM] | 0%[7.34 µM] |
| COc1cc(/C=C\C(=O)OCn2nnc3ccccc3c2=O)cc(OC)c1OC | -17% | i |
| Cn1nnnc1SCc1csc(C2C(C#N)=C(N)OC3=C2C(=O)CCC3)c1 (stereo not drawn) | -17% | i |
| CCC(=O)N/N=C(\C)CC(=O)Nc1ccc(Cl)cc1 | -15% | i |
| COc1ccc(NC(=O)c2cnc(SCC(=O)Nc3nc4ccc(C)cc4s3)n(C)c2=O)cc1 | -14% | -2% |
| O=S(=O)(c1ccc(C2CCCCC2)cc1)N1CCOCC1 | -13% | -20% |
| Cc1ccc(C)c2sc(NC(=O)c3ccc(S(=O)(=O)N4CCCC4)cc3)nc12 | -14% | -10% |
| CCc1ccccc1NC(=O)c1cc2nc(-c3ccc(OC)c(OC)c3)cc(C(F)(F)F)n2n1 | 12% | 4% |
| O=C(Nc1nnc(-c2ccc3c(c2)CCCC3)o1)c1ccc(Cl)cc1Cl | -10% | -29% |
| CCN1C(=NCc2cccc(Cl)c2)N[C@@H](c2cccc(F)c2)C(C(=O)OC)=C1C | -14% | i |
| COc1ccc(CCNC(=O)C(=O)NCc2ccccc2C)cc1OC | -7% | i |
| Cc1ccc(Cl)cc1NC(=O)Cn1c(=O)n(CCC(=O)NCc2ccc3c(c2)OCO3)c(=O)c2sccc21 | -16% | -6% |
| CC(C)N(Cc1ccccc1)C(=S)NC1CCCCC1 | -10% | -8% |
| COc1ccc(-c2c(C#N)cnc(C)c2C)c(O)c1OC | -18% | -1% |
| O=c1c2c3c(sc2ncn1/N=C/c1ccncc1)CCCC3 | -8% | -7% |
| COc1ccccc1CNC(=O)c1ccc2c(c1)CCN2S(=O)(=O)c1ccc(Cl)cc1 | -9% | -14% |
| Cc1ccc(/C=N\Nc2nc3ccc(Cl)cc3[nH]2)o1 | ? | ? |
| Cc1cc(C)cc(NC(=O)C(=O)NCC(c2cccnc2)N2CCN(c3ccccc3)CC2)c1 (stereo not drawn) | -12% | -15% |
| COC(=O)c1cccc(NC(=O)CSc2nnc(COc3ccccc3)n2C)c1 | -16% | nt |
| CN(C)c1ccc(NC(=S)NC(=O)/C=C/c2ccco2)cc1 | -2% | ? |
| O=C(CCCC(=O)N(CC(=O)NC1CCCCC1)CC1CCCO1)Nc1ccccn1 (stereo not drawn) | -8% | nt |
| CC1=C(C(=O)N2CCCCC2)C(c2cccc(Cl)c2)n2c(nc3ccccc32)N1 (stereo not drawn) | -5% | -21% |
| O=C1c2ccccc2C(O)(c2ccccc2)N1C1CC1 (stereo not drawn) | -10% | -9% |
| COc1cc(C)c(Cl)cc1S(=O)(=O)NCCc1c(C)[nH]c2ccccc12 | -6% | -27% |

Gathered by group: the entries above containing a cyano group.
| structure | Vaccinia Venus | Vaccinia mCherry |
| --- | --- | --- |
| Cn1nnnc1SCc1csc(C2C(C#N)=C(N)OC3=C2C(=O)CCC3)c1 (stereo not drawn) | -17% | i |
| COc1ccc(-c2c(C#N)cnc(C)c2C)c(O)c1OC | -18% | -1% |

Following part.
| structure | Vaccinia Venus | Vaccinia mCherry |
| --- | --- | --- |
| Cc1ccc(N(CC(=O)N2CCN(c3ccc(Cl)cc3)CC2)S(=O)(=O)c2c(C)noc2C)cc1 | -16% | -14% |
| CC(=O)Nc1ccc(NC(=O)C(OC(=O)c2ccccc2)C(OC(=O)c2ccccc2)C(=O)O)cc1 (stereo not drawn) | -12% | i |
| COCCNC(=O)C1Cc2c(-c3ccc(NC(C)=O)cc3)ccnc2O1 (stereo not drawn) | -10% | -26% |
| CCCn1c(O)c(N=Nc2ccc3ccccc3n2)c2ccccc21 | -3% | i |
| COc1cccc(Cc2nc3ccccc3nc2SCC(=O)N2CCc3ccccc32)c1 | -4% | -11% |
| O=C(CN1CCc2cc3c(cc2C1)OCCCO3)Nc1ccccc1 | -6% | -5% |
| O=C(CSc1nc2ncc(Cl)cc2[nH]1)NCCc1ccc(F)cc1 | -11% | -1% |
| Cn1cccc1/C=N/NC(=O)c1ccn[nH]1 | -1% | -7% |
| Cc1ccccc1CC1(CO)CCCN(C(=O)CCC(=O)c2ccccc2)C1 (stereo not drawn) | 5% | -3% |
| O=Cc1cn(CC(=O)NCC2CCCO2)c2ccccc12 (stereo not drawn) | 3% | -7% |
| CCOC(=O)C(NC(=O)CCl)(Nc1ccc(C(O)(C(=O)OCC)C(F)(F)F)cc1)C(F)(F)F (stereo not drawn) | ? | ? |
| CN(C)C1C(=O)C(C(N)=O)=C(O)C2(O)C(=O)C3=C(O)c4c(O)cccc4C(C)(O)C3C(O)C12 (stereo not drawn) | -14% | -14% |
| O=C(CCNC(=O)c1ccc(Cl)cc1)Nc1cccc(S(=O)(=O)N2CCCCCC2)c1 | 0% | -11% |
| O=C(Nc1nnc(C2=COCCO2)o1)c1cccc(C(F)(F)F)c1 | -19% | -8% |
| Cc1ccc(-n2nnc(-c3cc4ccccc4n3C)n2)cc1 | -11% | ? |

Single records (already shown). Order of values: Vaccinia Venus, Vaccinia mCherry
Listed for `COc1cc(/C=C\C(=O)OCn2nnc3ccccc3c2=O)cc(OC)c1OC` → -17%, i
Listed for `O=C(CSc1nc2ncc(Cl)cc2[nH]1)NCCc1ccc(F)cc1` → -11%, -1%
Listed for `CCCCNC(=O)C1(C)CCCCN1C(=O)c1ccc2ccccc2n1` (stereo not drawn) → -6%, i

Next compounds follow.
| structure | Vaccinia Venus | Vaccinia mCherry |
| --- | --- | --- |
| CCN1CCCC1CNC(=O)c1cc2c(C)nc3ccccc3c2o1 (stereo not drawn) | -8% | -5% |
| O=C(/C=C/c1cccs1)NC1CCS(=O)(=O)C1 (stereo not drawn) | -1% | 10% |
| O=C(COC(=O)c1ccccc1Br)Nc1cccnc1Cl | -5% | -3% |
| COC(=O)c1cc(C(=O)c2ccc(C(C)(C)C)cc2)c[nH]1 | -17% | -28% |
| CCC(=O)Nc1nnc(S(=O)(=O)N2CCCCCC2)s1 | -11%&-5% | -19%&-3% |
| C1CCCC(NC2=NCCO2)CCC1 | -11% | i |
| O=S(=O)(Nc1cccc(-c2ccc(N3CCCCC3)nn2)c1)c1cccs1 | -13% | -15% |
| O=C(COc1cccnc1[N+](=O)[O-])N1CCN(S(=O)(=O)c2ccccc2)CC1 | -3% | -7% |
| COc1ccc(NC(=S)NCCN2CCOCC2)c(OC)c1 | -2% | i |
| O=C(/C=C/c1ccc(Cl)cc1Cl)NC(=S)Nc1ccc(CN2CCOCC2)cc1 | -27% | ? |
| O=C(C[C@H]1C/C=C\CC[C@@H](Cc2ccc(F)cc2)C(=O)O[C@H](c2ccccc2)CNC1=O)N[C@H](CO)Cc1ccccc1 | ? | -7% |
| CCCCC(=O)N(CCOC)c1nnc(-c2ccccc2C)s1 | -16% | -7% |
| Cc1ccc(S(=O)(=O)N2CCN(C(=O)CN3C(=O)NC4(CCCC4)C3=O)CC2)c(C)c1 | -1% | -20% |
| COc1ccc2[nH]c(C)c(CCNC(=S)Nc3cccc(C)c3)c2c1 | ? | ? |
| CCc1ccc(NC(=O)c2cc(C)on2)cc1 | -12% | -18% |

Brought forward from above: 2 entries, followed by the next part.
| structure | Vaccinia Venus | Vaccinia mCherry |
| --- | --- | --- |
| COc1ccc2[nH]c(C)c(CCNC(=S)Nc3cccc(C)c3)c2c1 | ? | ? |
| CCc1ccc(NC(=O)c2cc(C)on2)cc1 | -12% | -18% |
| O=C(CSc1ccc(F)cc1)NC12CC3CC(CC(C3)C1)C2 | -11% | i |
| CCN(CC(=O)Nc1c(F)cccc1F)C(=O)Cc1n[nH]c(=O)c2ccccc12 | -6% | -8% |
| COc1cccc(OCC(O)CN2CC(C)CC(C)C2)c1 (stereo not drawn) | 14% | nt |
| CCc1cccc(OC2OC(CO)C(O)C(O)C2NC(C)=O)c1 (stereo not drawn) | -4% | -3% |
| O=C(Cn1ccc2ccccc2c1=O)NCCC(=O)Nc1ccc(F)cc1F | -6%&-3% | -16%&-4% |
| COc1ccc(O)c(-c2[nH]ncc2C(=O)c2ccccc2)c1 | -18% | -4% |
| CC(=O)c1ccc(C(=O)NCC2Cc3cccc(-c4ncccn4)c3O2)cc1 (stereo not drawn) | 5% | -10% |
| COC(=O)c1cccc(NC(=O)C(C)N2C(=O)c3ccccc3C2=O)c1 (stereo not drawn) | -11% | i |
| CCC1CCCCN1C(=O)CCc1nnc(Cc2cc(OC)ccc2OC)o1 (stereo not drawn) | -10% | i |
| O=C1N[C@@H](Cc2ccccc2)C(=O)N2[C@@H]1C[C@]1(Br)c3ccccc3N(S(=O)(=O)c3ccccc3)[C@H]21 | -6% | -3% |
| COc1ccccc1N1CCN(c2nc(CNC(=O)c3cc(C)oc3C)nc3ccccc23)CC1 | -5% | -13% |
| COCCC(=O)N1CCC(Oc2ccc(C(=O)N3CCCC(COC)C3)cc2)CC1 (stereo not drawn) | -10% | -11% |
| CCn1nc(C)c(CNC(=O)c2ccc(OC3CCN(Cc4ccccn4)CC3)cc2)c1C | -16% | -3% |
| Cc1cc(C)cc(OCC(=O)NCC2CCCO2)c1 (stereo not drawn) | -7% | i |
| O=C(Oc1ccccc1C(=O)Nc1ccccc1)c1ccccc1Br | ? | ? |
| CCCCn1c(N)c(N(CC(C)C)C(=O)c2cc3c(s2)CCCCC3)c(=O)[nH]c1=O | 2% | -11% |
| O=C(CSc1ccc(C(F)(F)F)cc1[N+](=O)[O-])Nc1ccccc1 | -18% | -21% |
| CN(CCc1ccccn1)C(=O)CCC1CCCN(C(=O)c2ccccn2)C1 (stereo not drawn) | -10% | i |
| COCCNc1ncnc2c1ncn2[C@H]1CN(Cc2ccc(F)cc2)C[C@@H](CO)O1 | 6% | 4% |
| COc1ccc2cc(CN(CC3CCCO3)S(=O)(=O)c3ccccc3)c(=O)[nH]c2c1 (stereo not drawn) | -19% | -18% |
| CS(=O)(=O)N1CCC(C(=O)O)CC1 | -6% | -11% |
| Cc1ccc(C(c2nnnn2CS(=O)(=O)c2ccc(C)cc2)N2CCC(C)CC2)cc1 (stereo not drawn) | -15% | i |
| Cc1cccnc1C(NC(=O)C1CCN(Cc2cn(C)c3ccccc23)CC1)c1ccc(Cl)cc1 (stereo not drawn) | 11µM* | 14µM* |
| COCC(C)Nc1ccc(S(=O)(=O)N2CCCC2)cc1[N+](=O)[O-] (stereo not drawn) | -6% | -4% |
| S=C(Nc1cccc2ccccc12)NC1CCCCC1 | 0% | ? |
| CCCCc1ccc(C(=O)NC(C(=O)O)C(C)C)cc1 (stereo not drawn) | -8% | -10% |
| Cc1ccc(N(C(C)C(=O)O)S(=O)(=O)c2c(C)[nH]c(=O)[nH]c2=O)cc1 (stereo not drawn) | -1% | i |
| COC(=O)c1sccc1S(=O)(=O)Nc1ccc(Cl)cc1 | 5% | -4% |
| CCCCn1c(O)c(C(=O)/C=C/c2ccc3c(c2)OCO3)c(=O)[nH]c1=O | -11%[7.34 µM] | ? |
| CCOc1ccc(-c2nn(CC(=O)NC3CCCC3)c3c2cnc2ccc(F)cc23)cc1 | -5% | -14% |
| Cc1cc(C)n(-c2nc3c(c(=O)[nH]c(=O)n3C)n2CCc2ccccc2)n1 | ? | ? |
| CCO[C@H]1OC(C(=O)N2CCOCC2)=C[C@@H](c2cn(C(C)=O)c3ccccc23)[C@@H]1CCCO | -20% | 2% |
| COc1ccc(CN2C(=O)CCC2(C)c2nnnn2C2CCCCC2)cc1 (stereo not drawn) | -5% | -20% |
| O=C(COc1ccccc1[N+](=O)[O-])N1CCC(c2nc3ccccc3o2)CC1 | -8% | 1% |
| O=C(Nc1nc(-c2ccc(-c3ccccc3)cc2)cs1)C1=COCCO1 | ? | ? |
| CC(C)c1ccccc1OCC(=O)NN1C(=O)c2ccccc2C1=O | -4% | 1% |
| COc1cc(Cl)ccc1OC1(C)CCN(Cc2ccc(SC)cc2)C1 (stereo not drawn) | 0% | i |
| Cc1ccc(-c2csc(NCCn3c(C)nc4cc(C(F)(F)F)ccc43)n2)cc1 | ? | ? |
| Cc1ccccc1NS(=O)(=O)c1ccc2[nH]cc(C(=O)NCCc3ccccc3)c(=O)c2c1 | -10% | -9% |
| O=C(CN1CCN(C2CCCCC2)CC1)Nc1ccccc1N1CCCCC1 | -28% | -4% |
| COC(=O)c1ccc(C(=O)OC)c(NC(=S)N2CCCCC2)c1 | -1% | i |
| CCCNC(=O)C1CCN(c2ccc(S(=O)(=O)N3CCOCC3)cc2Cl)CC1 | -12% | 0% |
| CSc1ccccc1NC(=S)N/N=C/c1cccn1Cc1cccc(C)c1 | 0% | -12% |
| Cc1sc2ncn(CC(=O)NCCCC(=O)N3CCN(c4ncccn4)CC3)c(=O)c2c1C | -13% | -21% |
| CN(CC(=O)NC(=O)NCc1ccccc1)CC(=O)Nc1ccc(Cl)c(C(F)(F)F)c1 | -17% | -17% |
| CC(=O)Nc1ccc(C2=CC(=O)CC(C)(C)C2)cc1 | -6% | ? |
| CCOC(=O)c1sc2nc(C)[nH]c(=S)c2c1C | -18% | -13% |
| COc1ccc(Nc2cc(C(=O)NC3CCCC3)c3ccccc3n2)cc1 | 0% | -8% |

Compounds as they come (roughly 0.82% active in at least one column).
